# Compound activity as filed in PubChem.
# PINK1 modulator = modulators of PINK1 expression; PINK1 immunofluorescence, high-content cytometry, 24 h; Potency, µM (top dose mostly 76.6 µM), inactives show at the top dose activation (PINK1 increase), usual class: activators; hit rate 0.2% among 410,000; active = well fitted activation curve with a large enough effect; inconclusive = small, poorly fitted or top-dose-only effect; inactive = flat fitted curve, though single readings scatter; cell line not stated here;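 also: potency is read from the fitted curve at half-maximal effect; % of control where 0% means no effect; nearly all actives have a fitted effect of over 65% in size; a mitochondrial uncoupler was the plate control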
#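 Measures PINK1 amount and localization on or inside mitochondria by immunofluorescence. Stable cells get compounds at 5 concentrations for 24 hours before fixation and staining; CCCP controls included.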
# TRPML1 inh = blocks the human TRPML1 channel | Q9GZU1 | TRPML1-inducible cells, Ca2+ dye fluorescence, FDSS; active compounds read low; inhibition of EC80 agonist-evoked calcium signal | activity change, negative = inhibition, % (no concentration beside the values) | hit rate 0.02% among 390,000; in the data active means activity change below about -50%; inconclusive means about -30% to -50%; inactive means above about -30%;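 also: stimulus is agonist 54-4 at its EC80 concentration; % is scaled to controls: 0 for no effect and ±100 for the full control effect; compound concentration not given in the record; the text of the record puts the active cut at -80%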
# Target sequence (Q9GZU1 whole entry, looked up): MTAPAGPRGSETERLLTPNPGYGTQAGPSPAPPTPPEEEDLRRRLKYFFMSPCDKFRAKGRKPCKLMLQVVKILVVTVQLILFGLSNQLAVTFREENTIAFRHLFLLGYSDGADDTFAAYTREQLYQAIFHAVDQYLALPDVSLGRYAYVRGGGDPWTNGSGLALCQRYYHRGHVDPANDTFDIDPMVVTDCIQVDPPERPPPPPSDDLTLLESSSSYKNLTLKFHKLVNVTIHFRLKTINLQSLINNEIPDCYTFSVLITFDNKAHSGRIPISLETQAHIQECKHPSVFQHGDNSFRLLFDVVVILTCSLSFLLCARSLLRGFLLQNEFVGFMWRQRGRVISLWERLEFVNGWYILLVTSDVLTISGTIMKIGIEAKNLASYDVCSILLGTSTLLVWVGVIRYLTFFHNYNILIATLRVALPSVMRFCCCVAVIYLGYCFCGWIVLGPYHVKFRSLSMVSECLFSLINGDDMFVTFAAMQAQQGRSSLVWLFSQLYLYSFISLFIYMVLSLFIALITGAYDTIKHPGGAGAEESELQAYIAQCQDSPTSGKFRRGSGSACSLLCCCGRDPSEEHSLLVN
#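 Calcium fluorescence in TRPML1-DL cells induced overnight with Tet: a 110 s read after compound pin addition, then a 110 s antagonist read after challenge with 54-4 at 4 uM final (EC80).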
# Six1-Eya2 inh = inhibitors of human Six1/Eya2 interaction; Q15475+O00167; AlphaScreen GST-Six1/His-Eya2 binding, biochemical; active compounds read low; control for the full effect not named in the record; activity change, % (no concentration beside the values); hit rate 0.56% among 360,000; in the data active = activity change below about -65%; inconclusive = about -30% to -65%; inactive = above about -30%; also: % is scaled to controls: 0 for no effect and ±100 for the full control effect
#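 Homogeneous AlphaScreen proximity assay pairing GST-Six1 with His-tagged Eya2 (added as 5X mix: 250 nM and 500 nM) in 50 mM Tris pH 8.0, 300 mM NaCl, 1 mM TCEP. Glutathione donor and nickel acceptor beads; 1 h, 37 °C, dark.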
# D2 agonist = activates the human D2 dopamine receptor. P14416. DiscoveRx PathHunter D2 beta-arrestin, luminescence, 90 min; 100% = 57 uM dopamine signal. activation, % (concentration not given with the values). hit rate 0.084% among 360,000. AID 624465; in the data active = activation above about 40%; inconclusive = about 15% to 40%; inactive = below about 15%; also: compound concentration not given in the record; the text of the record calls up to 30% inactive
# Target sequence (P14416 whole entry, looked up): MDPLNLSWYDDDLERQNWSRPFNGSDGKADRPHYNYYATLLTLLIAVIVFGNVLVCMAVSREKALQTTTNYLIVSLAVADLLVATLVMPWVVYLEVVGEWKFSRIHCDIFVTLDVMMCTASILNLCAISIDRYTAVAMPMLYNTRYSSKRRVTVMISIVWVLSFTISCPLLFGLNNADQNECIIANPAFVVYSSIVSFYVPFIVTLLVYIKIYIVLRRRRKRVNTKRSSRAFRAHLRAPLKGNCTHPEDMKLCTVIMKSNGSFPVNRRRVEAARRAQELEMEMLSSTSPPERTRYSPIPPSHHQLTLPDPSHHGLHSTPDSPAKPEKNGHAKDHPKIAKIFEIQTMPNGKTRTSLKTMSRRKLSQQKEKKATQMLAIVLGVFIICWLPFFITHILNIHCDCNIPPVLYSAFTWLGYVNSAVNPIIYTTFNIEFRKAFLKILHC
#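 Agonist mode: compounds alone added to overnight-plated D2 PathHunter cells for 90 min at 37 C, with 57 uM final dopamine (EC100) defining full response. Beta-arrestin recruitment detected by chemiluminescent reagent, read after 1 h at ambient temperature.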
# D2 potentiator = human D2 receptor positive allosteric modulation | P14416 | DiscoveRx D2 beta-arrestin cells, luminescence, 90 min; 100% = 57 uM dopamine signal | hit rate 0.23% among 360,000 | potentiation, % (no concentration beside the values) | AID 624464; active = potentiation of 50% or more; inconclusive = 30% to 50%; inactive = 30% or less;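 also: compound concentration not given in the record; tested on top of an EC20 dose of dopamine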
#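 D2 cells co-treated with compound plus 50 nM dopamine (EC20) for 90 min at 37 deg C to detect potentiation. Beta-arrestin recruitment was read as enzyme-fragment luminescence after 1 h at ambient temperature. Full response was set by 57 uM dopamine.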
# TRPML1 ag = activates the human TRPML1 channel; Q9GZU1; TRPML1-expressing cells, Ca2+ dye fluorescence, FDSS; host cell line not named in the record; reference of the full effect not given here; activation, % (concentration not given with the values); hit rate 0.12% among 410,000; AID 624414; in the data active = activation above about 50%; inconclusive = about 30% to 50%; inactive = below about 30%; also: 0% is about no effect; the text of the record puts the active cut at 80%
#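 Tet-induced TRPML1-DL cells, 1,500 per well, cultured overnight, were loaded with a no-wash Ca2+ dye for 45–90 min. Calcium fluorescence was recorded on the FDSS for 110 s after compound addition, before the EC80 agonist (4 uM 54-4) was added.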
# Starred values were filed as active, the others as inactive; ? = inconclusive; nt = no result given; [ ] = dose if it differs, or a comment. Not a hit list. Share with any hit: about 1%.
# Sequence of screens – PINK1 modulator	TRPML1 inh	Six1-Eya2 inh	D2 agonist	D2 potentiator	TRPML1 ag
CC1(C)Cc2c(C#N)c(OCC(=O)c3ccc(Cl)cc3)nc(-c3ccoc3)c2CO1
 : 15%	-1	1	1.0	1	-0.1
COCCCNCCCCOc1ccccc1-c1ccccc1
 : 4.2%	-11	8	3.9	-31	1.0
CC[C@]12c3[nH]c4ccc(OC)cc4c3CCN1C(=O)C(CC(=O)NCc1cccc(C(F)(F)F)c1)C[C@@H]2C(=O)N1CCN(C(=O)c2ccco2)CC1 (stereo partly specified)
 : -0.1%	-4	-6	1.1	-5	0.3
Cc1cc(C)nc(NS(=O)(=O)c2ccc(NC(=O)c3nc(SC(C)C)ncc3Cl)cc2)n1
 : -1.0%	14	nt	nt	nt	1.1
O=C(O)C1CC(=O)N(c2ccc(OCc3ccc(Cl)cc3Cl)cc2)C1 (stereo unspecified)
 : 3.7%[38.3 µM]	-9	-2	-0.5	1	-0.4
Cc1ccc(NC(=O)Cn2nnc(C(=O)NCCc3ccccc3)c2N)c(C)c1
 : 2.7%	-18	5	-1.7	-17	0.2
O=S(=O)(c1ccc(F)cc1)c1snnc1-c1ccccc1
 : -1.6%	-9	-3	-3.6	-5	0.9
Cc1cccc(NS(=O)(=O)c2ccc3[nH]c(=O)cc(C(=O)O)c3c2)c1
 : 0.5%	25	3	-3.5	-14	-0.2
CCn1cc(C2=NC(CC(C)C)CO2)c2ccccc21 (stereo unspecified)
 : 12%	-19	3	2.0	-10	1.5
O=C(Nc1ccccc1)/C(=C/c1ccc([N+](=O)[O-])cc1)NC(=O)c1ccccc1
 : ?	-7	-7	-1.7	-13	0.1
CCc1nc2ccc(C(=O)NCCc3ccccn3)cn2c1N(C)Cc1cccs1
 : 2.2%	nt	-8	2.9	-4	-1.4
C=CCn1c(SCC(=O)c2ccccc2)nnc1-c1cc2ccccc2o1
 : 0.6%	17	5	-0.6	-18	3.4
CC(=O)Nc1cccc(NC(=O)COc2ccc3c(c2)CCC3)c1
 : 0.5%	33	-3	-1.0	-1	4.3
S=c1[nH]nc(COc2ccccc2)n1/N=C/c1ccccc1Cl
 : 2.6%	-15	0	-3.9	-10	0.1
Cc1cc(C)c2oc(C(=O)N3CCN(Cc4ccccc4)CC3)cc(=O)c2c1
 : -2.9%	-3	4	6.7	-8	2.2
Cc1ccc(OCc2cc(C(=O)N3CCC(c4ccccc4Cl)C3)no2)cc1C (stereo unspecified)
 : 1.8%	-13	4	-0.9	-7	4.9
COc1ccccc1OCCNC(=O)c1cc([N+](=O)[O-])cc([N+](=O)[O-])c1
 : 2.5%	5	15	0.8	3	-0.6
Cc1nnc(C)n1/N=C/c1cc(Br)cc(Br)c1O
 : 0.2%	-7	0	-8.6	-24	2.3
CCOc1ccc2c(c1)NC(c1cccs1)=NC(c1ccc(F)cc1)=N2
 : -0.4%	13	nt	nt	nt	3.7
CCc1nc2c(OC)cccn2c1N(C)C(=O)c1ccccc1F
 : 0.1%	1	-2	0.8	3	0.3
CC(C)(C)CNC(CO)C12CC3CC(CC(C3)C1)C2 (stereo unspecified)
 : 0.0%	-4	4	-0.7	-6	-0.2
COc1ccc(CCNC(=O)c2oc3ccc(S(=O)(=O)N4CCOCC4)cc3c2C)cc1OC
 : 1.9%	-9	-1	-1.9	-3	0.3
O=C(/C=C/c1cccs1)c1ccco1
 : -1.1%	-22	-4	-1.3	-1	0.5
O=S(=O)(NC1CCCCC1)c1cccs1
 : 0.7%	9	7	-2.7	-6	-0.2
CC(=O)OC[C@@H]1CN(Cc2cccc(C(F)(F)F)c2)C[C@H](n2cnc3c(NCc4ccco4)ncnc32)O1
 : 0.8%	nt	-9	11	11	-0.1
COc1ccc(C(=O)COC(=O)c2ccccc2O)c(OC)c1
 : -0.8%	23	6	-0.6	0	2.9
CCCCOc1ccc(S(N)(=O)=O)cc1
 : -0.2%	-14	-1	-2.4	-12	1.9
COc1ccc(C(=O)NCCSc2ccc(C)cc2)cc1
 : -0.5%	4	9	3.8	-10	2.3
CCc1ccc(-n2nc(C)c3c(C)cc(=O)n(CC(=O)Nc4ccc(F)cc4C)c32)cc1
 : -1.3%	2	nt	nt	nt	-0.3
Cc1onc(-c2ccccc2)c1-c1n[nH]c(=S)n1-c1ccc(C(=O)O)cc1
 : 1.4%	10	7	0.6	-17	-0.2
O=C(NC1CC(=O)N(c2ccccc2)C1)C1CC1 (stereo unspecified)
 : 4.8%	21	1	0.5	-4	-0.6
CC(C)(C)c1nc2scc(-c3cccs3)c2c(=O)o1
 : -2.4%	49	4	-2.2	-5	0.2
C[C@@H](C(=O)Nc1cccnc1)n1c(=O)[nH]c2ccccc2c1=O
 : 0.5%	-4	9	-6.4	-7	0.7
CC(C(=O)Nc1cccc(S(=O)(=O)N2CCOCC2)c1)N1CCN(C)CC1 (stereo unspecified)
 : 2.5%	44	2	-3.3	-9	-0.2
COc1ccc(N2CCN(C(=O)c3ccc(CS(=O)(=O)c4ccc(OC)cc4)o3)CC2)cc1
 : 4.5%	-13	-17	-6.3	-16	-0.4
CC(C)NC(=O)N(C)C[C@@H]1OCCCC[C@@H](C)Oc2ccc(NC(=O)Nc3ccc(F)cc3)cc2C(=O)N([C@H](C)CO)C[C@@H]1C
 : 0.7%	nt	6	-2.0	-6	0.1
COc1cc(NS(=O)(=O)c2ccc(Nc3nc(-c4ccccc4)cs3)cc2)nc(OC)n1
 : -2.5%	26	?	-3.2	-3	-0.2
O=C1OCCC1Sc1nnc(-c2cccc(Br)c2)o1 (stereo unspecified)
 : 4.4%[38.3 µM]	-4	-2	-2.7	2	0.1
CC(C)CC(=O)Nc1nc(-c2ccc(S(=O)(=O)N3CCOCC3)cc2)cs1
 : 7.2%	5	-5	-0.7	1	-0.5
Cc1ccc(NCC(=O)Nc2ccc(Br)cc2)cc1C
 : 0.7%	-18	0	-2.4	-9	-0.2
Cc1ccc(-c2cn3cccc(C)c3n2)cc1
 : 1.3%	34	-2	-4.6	-9	1.9
CN(C)c1nc(N)c([N+](=O)[O-])c(N2CCCCCC2)n1
 : 0.0%	0	15	-3.6	-1	1.7
Cc1ccccc1OCCC(=O)NCCc1ccc(S(N)(=O)=O)cc1
 : -1.5%	19	12	0.2	-1	-0.5
O=C(NC1CC1)C1=C[C@H](C2CCCCC2)C[C@H](OCc2ccc(CO)cc2)O1
 : 2.9%	2	3	2.7	-2	-0.1
COC(=O)c1ccc2c(c1)S(=O)(=O)NC2C (stereo unspecified)
 : -1.2%	nt	2	nt	nt	-0.2
COc1cc2c(C(=O)N3CCN(C)CC3)c(C)oc2cc1Br
 : 2.9%[38.3 µM]	-4	3	0.8	2	-0.9
Cc1cc(C)c(S(=O)(=O)N(CC(=O)N2CCCC2)C2CCCCC2)c(C)c1
 : -1.6%	44	0	-5.8	-11	1.0
CCOc1ccc(C(=O)COc2ccc(NC(C)=O)cc2)cc1
 : 0.6%	-9	-5	0.0	-26	0.1
COc1cc(/C=C/C2=NC(=O)C(C)(C)O2)ccc1O
 : -5.4%[38.3 µM]	4	0	-1.5	-6	-0.4
CC1=NN(C(C#N)c2c(C)nn(Cc3ccccc3)c2C)C(C)(C)C1 (stereo unspecified)
 : -0.1%	9	-2	-4.0	-7	0.8
O=C(NNC(=S)NCc1ccc(Cl)cc1)c1ccc(Br)o1
 : -1.7%	18	-10	-0.4	-15	1.1
COc1ccccc1S(=O)(=O)N1CCNC(=O)C1
 : 0.3%	2	2	-1.4	-1	-0.2
Cc1cc(C)nc(SCc2cn3c(C)cccc3n2)n1
 : 2.2%	-17	-10	-0.4	-18	0.3
O=C(N1CCOCC1)C12OC3CC(CC(C3)O1)O2
 : 0.1%	nt	8	-4.5	-2	-0.1
COc1ccc(S(=O)(=O)N(CC(=O)NCc2ccco2)c2ccccc2OC)cc1
 : 22%	6	-4	1.3	4	0.7
Cc1c(C(=O)N2CCN(c3ccccc3)CC2)oc2c(F)cccc12
 : 5.2%	17	-11	0.2	7	1.1
c1ccc(Nc2nnc(SCc3cccc4ccccc34)s2)cc1
 : 7.7%	36	2	-3.2	3	1.2
CCOC(=O)C1=C(COC(=O)/C=C/c2ccc(F)cc2)NC(=O)NC1C (stereo unspecified)
 : 1.8%	-4	0	3.7	7	-0.5
O=C(O)c1cccc(NC(=O)C2CCCO2)c1 (stereo unspecified)
 : -3.2%[38.3 µM]	3	10	-1.1	10	0.3
Cc1ccc(-n2[nH]c(C)c(/C=N/Nc3ccc([N+](=O)[O-])cc3[N+](=O)[O-])c2=O)cc1
 : ?	20	?	-9.9	-29	0.5

# Exported as tab-separated lines: 6 of the compounds above.
SMILES	PINK1 modulator	TRPML1 inh	Six1-Eya2 inh	D2 agonist	D2 potentiator	TRPML1 ag
COc1ccc(C(=O)COC(=O)c2ccccc2O)c(OC)c1	-0.8%	23	6	-0.6	0	2.9
CCCCOc1ccc(S(N)(=O)=O)cc1	-0.2%	-14	-1	-2.4	-12	1.9
COc1ccc(C(=O)NCCSc2ccc(C)cc2)cc1	-0.5%	4	9	3.8	-10	2.3
CCc1ccc(-n2nc(C)c3c(C)cc(=O)n(CC(=O)Nc4ccc(F)cc4C)c32)cc1	-1.3%	2	nt	nt	nt	-0.3
Cc1onc(-c2ccccc2)c1-c1n[nH]c(=S)n1-c1ccc(C(=O)O)cc1	1.4%	10	7	0.6	-17	-0.2
O=C(NC1CC(=O)N(c2ccccc2)C1)C1CC1 (stereo unspecified)	4.8%	21	1	0.5	-4	-0.6

# Continued.
# Sequence of screens – PINK1 modulator	TRPML1 inh	Six1-Eya2 inh	D2 agonist	D2 potentiator	TRPML1 ag
COc1cccc(-c2nn(C)c3sc(C(=O)NCc4ccc(OC)cc4OC)cc23)c1
 : 1.6%	1	nt	nt	nt	0.6
O=C(O)CC(NC(=O)OCc1ccccc1)c1ccc(Br)cc1 (stereo unspecified)
 : -1.8%	32	5	-2.6	14	-0.4
CC(C)C(=O)NC(c1cccc([N+](=O)[O-])c1)c1ccc2cccnc2c1O (stereo unspecified)
 : 1.4%	25	-94*	2.6	-15	2.5
CC(/C=C/C=C/c1ccccc1)=N/NC(=O)CNc1ccc(C)cc1
 : 1.9%[38.3 µM]	11	-5	-1.8	-6	-0.2
Cc1ccc(Cl)cc1NC(=O)CCCn1c(=O)c2cccn2c2cccnc21
 : 2.2%	-13	nt	nt	nt	-0.4
CC(=O)NCC(=O)NC1CCCc2c1cnn2-c1ccc(C(C)(C)C)cc1 (stereo unspecified)
 : -0.3%	1	6	1.0	-3	-0.4
COc1ccc(C2c3[nH]c4ccccc4c3C[C@H]3C(=O)N(C)CC(=O)N23)cc1OC (stereo partly specified)
 : 0.1%	nt	-19	0.1	0	nt
COC(=O)c1ccc(Cl)c(NC(=O)NC2CCCCC2)c1
 : 3.5%	-7	-1	-5.9	-10	0.3
COc1ccccc1NC(=O)c1ccc2c(Cl)c3c(nc2c1)CCCC3
 : 2.1%	27	nt	nt	nt	0.0
